Source: PubChem BioAssay
ugtP null kill: growth inhibition of S. aureus ugtP deletion strain. growth inhibition, % (test concentration not listed). actives 0.54% (n = 330,000). AID 1259309. S. aureus RN4220 ugtP deletion, OD600 growth, 16 h; some inactives read as strong as hits;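 active = z-score under -3 and OD600 up to 0.15 on both plates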;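 also: plate controls were untreated wells for no effect and antibiotic for full effect; wells of about 80 µL received 100 nL stock; the first replicate is given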
Autofluor counter: compound fluorescence in toxin protease inhibitor counterscreen; compound autofluorescence counterscreen, microsphere flow cytometry; hits give high values; fluorescence intensity (no concentration beside the values); actives 3.1% (n = 360,000);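 active = at least 3 SD above the mean of all compounds, about 16000 in these data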;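 also: 100 nL of 1 mM stock went into each well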
RN4220 kill: kills Staphylococcus aureus RN4220 | inhibition, % (no concentration beside the values) | actives 0.33% (n = 330,000) | S. aureus RN4220 growth, OD600, 16 h;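 active = z-score of -3 or lower and OD600 up to 0.18 on both plates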;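 also: plate controls were untreated cells for no effect and reference antibiotic for full effect; stock transfer was 100 nL into about 80 µL; one replicate is shown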
BJeLR lethal: kills HRASV12-expressing BJeLR cells. inhibition, % (no concentration beside the values). BJeLR (HRASV12) viability, CellTiter-Glo ATP luminescence, 48 h; reference of the scale not given here. actives 0.17% (n = 300,000);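 active = replicate mean above 50%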;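 also: 50 nL library stock added to about 25 µL; numbers are from one replicate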
Mtb hypoxia inh: inhibitors of hypoxia-regulated fluorescent reporter in Mycobacterium tuberculosis; fluorescence inhibition, % (test concentration not listed); actives 0.1% (n = 300,000); M. tuberculosis hypoxia-regulated fluorescent reporter, fluorescence; AID 1159583;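 active = 35 to 45% if threefold the growth effect, above 45% if 1.5-fold the growth effect; inactive = the rest, general growth blockers included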;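 also: wells of about 50 µL received 100 nL stock; 0% = vehicle wells and 100% = reference inhibitor wells; whole bacteria with a GFP reporter of the hypoxia response; strong numbers were not always called active; many hits fall short of the cut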
PrP 5UTR inh: suppresses PrP 5' UTR mRNA reporter expression; cell-based PrP 5' UTR mRNA reporter, plate reader; inhibition, % (test concentration not listed); actives 0.35% (n = 340,000); AID 488862;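 active = every replicate at 50% or more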;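 also: 0 = median of the neutral control wells; tested in H4 reporter cells; numbers are from one replicate; inactives centre near -14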
Mtb hypoxia inh growth: also measured in Mtb hypoxia inh; calls as there; growth inhibition, %; measured here: M. tuberculosis growth (absorbance);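 0% = vehicle and 100% = reference antibiotic; read after six days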
Numbers without * were called inactive; . = not tested or not shown.

SMILES | ugtP null kill | Autofluor counter | RN4220 kill | BJeLR lethal | Mtb hypoxia inh | Mtb hypoxia inh growth | PrP 5UTR inh
CCCc1nn2c(=O)c(C(c3ccc(C)cc3)c3c(O)nc4sc(CCC)nn4c3=O)c(O)nc2s1 | 0.6 | 3089 | -0.6 | 6.5 | . | . | -16.3
CC(=O)N1c2ccc(S(=O)(=O)N3CCC(C(=O)Nc4ncccc4C)CC3)cc2CC1C (centres undefined) | 2.2 | 5641 | 3.0 | -0.7 | -8.3 | -6.9 | -1.3
COc1ccnc2c1c(=O)n(Cc1ccc(Cl)cc1)c(=O)n2C | 1.2 | 4188 | -1.1 | 5.4 | 1.8 | 0.6 | -9.6
CCOc1ccc(NS(=O)(=O)c2ccc(C(=O)N3CCCC(C)C3)cc2)cc1 (centres undefined) | 13.5 | 6025 | 3.4 | 9.3 | -3.8 | 3.4 | -32.7
CC(OC(=O)C1CCC(=O)N1)C(=O)Nc1cc(Cl)cc(Cl)c1 (centres undefined) | 3.2 | 2422 | 4.6 | 1.5 | 12.5 | 9.6 | -15.4
Cc1nc(SC(C)C(=O)NCc2ccc3c(c2)OCO3)nc(C)c1C (centres undefined) | 5.4 | 2966 | 5.5 | . | 7.0 | 4.3 | -8.4
CCN(C(=O)COC(=O)CC1CCCCC1)c1c(N)n(Cc2ccccc2)c(=O)[nH]c1=O | -4.3 | 3856 | -3.1 | . | 4.8 | 6.2 | -18.2
CCOc1ccc(-n2c(Cc3cc(=O)[nH]c(=O)[nH]3)nnc2SCC(N)=O)cc1 | 10.1 | 4206 | 3.9 | -6.5 | 0.0 | 2.0 | -14.6
COc1cc(C(=O)NCCC(=O)NC2CCCCCCC2)cc(OC)c1OC | -0.9 | 11188 | 1.0 | 2.4 | 2.5 | 11.5 | 3.7
CC(=NNC(=O)c1cccc(C)c1)c1c(O)cc(C)oc1=O | 0.8 | . | 6.8 | . | -73.5 | -6.2 | .
CC(=C/C(=O)O)/C(=C/c1ccccc1)C(=O)O | 3.0 | 1952 | 2.9 | -2.1 | 9.5 | 6.5 | -26.9
CC(=O)c1cccc(OCc2cc(C(=O)N3CCC(N4CCCCC4)CC3)no2)c1 | 7.5 | 8841 | 5.0 | 16.4 | -3.7 | 0.6 | -4.7
CC(=O)Nc1ccc(NC(=O)C23CC4CC(C2)CC(n2cnc(Br)n2)(C4)C3)cc1 | 6.1 | 2388 | 2.2 | -4.1 | 5.1 | 2.3 | -23.1
CN(/N=C/c1ccccc1Cl)c1ncc(Cl)cc1C(F)(F)F | . | 4169 | . | 9.0 | . | . | -36.9
Cc1nn(C(C)c2n[nH]c(=S)n2-c2ccc(F)cc2)c(C)c1[N+](=O)[O-] (centres undefined) | -2.7 | 17161* | 0.4 | 3.7 | -3.0 | 6.9 | 0.0

The list goes on; it opens with the 6 that closed the last part.
SMILES | ugtP null kill | Autofluor counter | RN4220 kill | BJeLR lethal | Mtb hypoxia inh | Mtb hypoxia inh growth | PrP 5UTR inh
CC(=NNC(=O)c1cccc(C)c1)c1c(O)cc(C)oc1=O | 0.8 | . | 6.8 | . | -73.5 | -6.2 | .
CC(=C/C(=O)O)/C(=C/c1ccccc1)C(=O)O | 3.0 | 1952 | 2.9 | -2.1 | 9.5 | 6.5 | -26.9
CC(=O)c1cccc(OCc2cc(C(=O)N3CCC(N4CCCCC4)CC3)no2)c1 | 7.5 | 8841 | 5.0 | 16.4 | -3.7 | 0.6 | -4.7
CC(=O)Nc1ccc(NC(=O)C23CC4CC(C2)CC(n2cnc(Br)n2)(C4)C3)cc1 | 6.1 | 2388 | 2.2 | -4.1 | 5.1 | 2.3 | -23.1
CN(/N=C/c1ccccc1Cl)c1ncc(Cl)cc1C(F)(F)F | . | 4169 | . | 9.0 | . | . | -36.9
Cc1nn(C(C)c2n[nH]c(=S)n2-c2ccc(F)cc2)c(C)c1[N+](=O)[O-] (centres undefined) | -2.7 | 17161* | 0.4 | 3.7 | -3.0 | 6.9 | 0.0
COc1cc(CC(=O)OCC(=O)Nc2ccc3c(c2)OCO3)cc(OC)c1OC | 3.2 | 4407 | 14.2 | -4.1 | 5.5 | 6.2 | -32.8
O=C(NCc1ccc2c(c1)OCO2)C1CC(=O)N(c2ccc(F)cc2)C1 (centres undefined) | 5.7 | 8746 | 4.5 | -2.9 | 13.4 | 15.7 | -13.8
Cc1ccc(S(=O)(=O)NN=Cc2cc(Cl)ccc2O)cc1 | -8.9 | 3012 | 23.8 | . | 8.8 | 4.3 | -44.2
Cc1nn(C)c(C)c1S(=O)(=O)N1CCC(CO)(Cc2ccc(Cl)cc2)CC1 | -4.4 | 4401 | 3.0 | 9.3 | 7.5 | 5.5 | -24.2
COc1ccc(C/C(=N\O)c2ccc(OC)cc2)cc1 | . | 8503 | . | -0.9 | . | . | -10.0
O=C(Nc1ccc(Cl)cc1N1CCOCC1)C1CCCCC1 | -4.0 | 5804 | -0.7 | 9.5 | 4.0 | 6.4 | -26.0
Cc1ccc(-n2c(Cc3cccs3)nnc2SCC(=O)Nc2ccc(F)c(F)c2)cc1 | -18.6 | 16116 | 8.0 | -8.3 | 0.8 | 8.6 | -13.9
NC(=NCCc1c[nH]c2ccccc12)NC(=O)c1ccc(F)cc1 | -0.8 | 3896 | 1.8 | 9.6 | 9.6 | 4.0 | -24.9
Cc1ccc(C(=O)N(C)CC(=O)Nc2ccc(F)c(F)c2F)o1 | 5.3 | 4356 | 7.9 | . | 2.4 | 15.0 | -10.5
O=S(=O)(NCC1CCCO1)c1ccc2c(c1)OCCO2 (centres undefined) | 8.6 | 4884 | 2.7 | . | . | . | -10.6
S=c1[nH]nc(-c2ccco2)n1N=Cc1ccc(Cl)c(Cl)c1 | -2.6 | . | 22.2 | . | 5.3 | 2.9 | .
O=C(Nc1ncnc2sc3c(c12)CCC3)c1ccco1 | 9.6 | 7000 | 0.1 | 7.9 | 12.2 | 12.9 | -5.4
CCN(CC)C(=O)c1ccc(COc2ccccc2Br)o1 | -4.3 | 2535 | 7.1 | -0.4 | 5.9 | 4.9 | -29.1
CCC(=O)Nc1ccc(-c2nn3c(C)nnc3s2)cc1C | 12.3 | 9346 | 1.7 | 4.4 | 1.8 | -8.8 | -10.8
CC1CCCCN1S(=O)(=O)c1ccc2c(c1)CCN2C(=O)CCC(=O)O (centres undefined) | 12.1 | 11389 | 5.3 | 15.3 | 4.9 | 1.4 | -10.3
Brc1cccc(-c2nnc3n2CCCCC3)c1 | 4.7 | 3150 | 6.5 | -2.9 | 4.6 | 1.7 | -13.3
CON(C)C(=O)CCN(C(=O)OC(C)(C)C)c1ccccc1 | -7.4 | 3802 | 7.2 | . | 11.8 | 10.7 | -9.5
COC(=O)c1cc(=O)n(CCc2ccc(OC)c(OC)c2)c(=Nc2ccc(F)c(Cl)c2)s1 | -2.8 | 5256 | 14.2 | -4.6 | -11.7 | 11.3 | -10.0
O=C(COc1ccc([N+](=O)[O-])cc1)N/N=C/c1cc([N+](=O)[O-])ccc1N1CCOCC1 | . | 8643 | . | 14.4 | . | . | -23.0
O=C(Nc1ccc2c(c1)OCO2)C1CC(c2ccc(F)cc2)=NO1 (centres undefined) | -1.3 | 4198 | 1.6 | 3.3 | 3.4 | 0.2 | -11.8
COc1ccc(-n2nc(C)cc2N)cc1 | 6.7 | 3192 | 2.1 | 3.4 | 7.0 | 9.4 | -2.8
Cn1nccc1C(=O)N/N=C/c1cccnc1 | . | 5843 | . | -12.1 | . | . | -28.7
CCCc1nc(N)nc2c1C(=O)CC(C)(C)C2 | -4.9 | 4278 | 4.0 | -1.5 | . | . | -3.7
Cn1c(CN2CCCC2)nc2cc(NS(=O)(=O)c3ccc(Cl)cc3)ccc21 | -5.0 | 3433 | -17.6 | -2.6 | . | . | -20.6
CCOC(=O)c1c(C)[nH]c(C(=O)CSc2nnc(CC(C)c3ccccc3)o2)c1C (centres undefined) | 3.0 | 9072 | -0.4 | -16.1 | -2.2 | 8.1 | -24.4
CCOc1cccc(CNn2cnnc2)c1OCc1ccccc1 | 9.5 | . | 5.0 | 6.2 | 8.4 | 4.2 | -12.2
CCn1c(/C=C/c2cc[n+](C)cc2)nc2ccccc21 | 9.4 | 3683 | 1.2 | -4.8 | 0.3 | -5.5 | -1.0
Cc1cccc(CSc2ccc(-c3ccco3)nn2)c1 | 15.7 | 8899 | 11.4 | -5.6 | 14.5 | 4.7 | -44.8
CCC(=O)N1CCN(c2ccc(NC(=O)c3ccco3)cc2Cl)CC1 | 8.8 | 5306 | -3.6 | 2.6 | 4.9 | 4.9 | -21.4
O=C(c1cccc(C(F)(F)F)c1)N1CCC(=O)N(C(CO)Cc2ccccc2)CC1 (centres undefined) | 0.3 | 3989 | 3.9 | 1.3 | 20.2 | 11.4 | -10.0
O=C(CSc1nnc(CNC(=O)c2c(F)cccc2F)o1)c1ccccc1 | -0.7 | 4840 | 2.1 | 4.2 | -6.9 | -2.6 | 4.7
COc1ccc(-c2nc3c(s2)CCc2onc(-c4ccc(OC)cc4)c2-3)cc1 | -6.1 | 3133 | -18.0 | 29.6 | 1.0 | 5.2 | -5.0
O=C(NCc1ccccc1)C(c1ccccc1)N(Cc1cccs1)C(=O)c1cnccn1 (centres undefined) | 0.5 | 9329 | 3.5 | 3.0 | 4.1 | 6.9 | -17.7
Oc1ccc(N=Nc2ccccc2C(F)(F)F)c2cccnc12 | 99.2* | 2623 | 96.5* | 28.5 | 16.0 | -3.3 | .
Cc1ccc(/C(O)=C2\C(=O)C(=O)N(CC(C)O)C2c2ccc(N(C)C)cc2)cc1 (centres undefined) | . | 2532 | . | -6.3 | . | . | -8.2
CCOc1ccc(C(C)=O)cc1CN1c2ccc(S(N)(=O)=O)cc2CC1C (centres undefined) | . | 3622 | . | -9.5 | . | . | -33.4
O=C(N/C(=C\c1ccc(-c2ccccc2)o1)C(=O)N1CCOCC1)c1ccccc1 | -5.3 | 3373 | -1.6 | . | -6.5 | -1.5 | -8.4
O=C(O)c1cc(/C=C/c2ccc(N3CCOCC3)c([N+](=O)[O-])c2)nc2ccccc12 | 4.0 | 4239 | 6.1 | 22.1 | 2.9 | 0.6 | 3.2
Cc1ccc(CN(C)CC(=O)NC(C)c2ccccc2)cc1 (centres undefined) | 6.3 | 3763 | -0.5 | -3.2 | 4.1 | 8.1 | -8.3
O=C(NCCSc1c[nH]c2ccccc12)c1ccc2c(c1)OCO2 | -7.5 | 5683 | -8.0 | 1.5 | 5.3 | 9.9 | -19.3
O=C(Cn1nnc(-c2cccc(C(F)(F)F)c2)n1)NC(=O)NCc1ccco1 | 4.4 | 3321 | -19.9 | 2.0 | 6.7 | -1.8 | -24.6
COc1ccc(-c2noc(-c3ccc(Br)o3)n2)cc1 | 5.6 | 3565 | 3.4 | 6.6 | 17.8 | 2.5 | -27.7
Fc1cccc(Cl)c1CSc1ccc2nnc(-c3ccccn3)n2n1 | 6.1 | 4346 | 17.7 | 10.8 | 6.1 | 2.5 | 8.3
CCn1c2ccccc2c2nnc(SCCN3CCCCC3)nc21 | 8.8 | 4256 | 4.6 | -1.6 | 1.3 | 2.5 | -24.4
CCOC(=O)C(=O)NN=Cc1ccc(F)cc1 | 7.3 | . | 4.5 | . | 2.6 | -9.4 | .
COC(=O)c1ccccc1NC(=O)c1cccc(NC(=O)C(C)C)c1 | -6.4 | 2173 | 4.9 | -3.6 | 6.1 | 1.2 | -10.8
COc1ccc(-c2nc(CN3CCN(C(=O)c4ccco4)CC3)c(C)o2)c(F)c1 | -0.1 | 5321 | 6.9 | -2.3 | 10.6 | 1.0 | -14.2
CCOC(CCNC(=O)c1cn(-c2cccc(C)n2)cn1)OCC | -0.5 | 3829 | 0.0 | 3.1 | . | . | -24.2
Cc1ccc(C(=O)C2=C(O)C(=O)N(Cc3cccnc3)C2c2ccc(Cl)cc2)o1 (centres undefined) | 8.8 | 3154 | 14.1 | -8.7 | -0.7 | -5.8 | 10.2
CCOC(=O)C1=C(C)N=C2c3ccccc3C(=O)C2C1c1ccc(Cl)cc1 (centres undefined) | 45.7 | 9186 | 88.1* | 7.0 | 1.5 | -3.0 | -1.7
COc1cnc(SCc2ccc(Cl)cc2)nc1Cl | -3.9 | 5999 | 5.5 | -6.6 | 6.4 | 12.8 | 4.4
CCc1ccc(C(C)NC(=O)c2ccncc2)cc1 (centres undefined) | 2.2 | 3882 | -2.5 | -9.1 | 7.8 | 18.4 | -26.9
O=c1c2ccccc2[nH]c(=S)n1CCN1CCCCC1 | -3.6 | 6149 | -1.4 | 8.8 | -2.1 | 3.9 | -9.0
